Env fusion inh = HIV envelope-mediated fusion inhibition. AID 651610. hit rate 1.1% among 360,000. HeLa-JRFL Env/CEM21 cell fusion, luciferase. inhibition, % at 12.3 µM;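 active means mean replicate inhibition score of at least 50 and every replicate individually at or above 50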;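 further: 0% = plate neutral controls and 100% = maraviroc near 300 nM; one replicate is shown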
Rce1 inh = inhibitors of yeast Ras-converting enzyme | Q03530 | yeast membranes, quenched prenylated peptide cleavage fluorescence | calls only | hit rate 0.27% among 290,000;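 active means fall in fluorescence gain of 50% or more versus controls, with final raw signal at or below 3038400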;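 further: plate controls were neutral control wells for no effect and wells lacking membranes for full effect; tested at 10 µM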
Target sequence (Q03530 whole entry, looked up): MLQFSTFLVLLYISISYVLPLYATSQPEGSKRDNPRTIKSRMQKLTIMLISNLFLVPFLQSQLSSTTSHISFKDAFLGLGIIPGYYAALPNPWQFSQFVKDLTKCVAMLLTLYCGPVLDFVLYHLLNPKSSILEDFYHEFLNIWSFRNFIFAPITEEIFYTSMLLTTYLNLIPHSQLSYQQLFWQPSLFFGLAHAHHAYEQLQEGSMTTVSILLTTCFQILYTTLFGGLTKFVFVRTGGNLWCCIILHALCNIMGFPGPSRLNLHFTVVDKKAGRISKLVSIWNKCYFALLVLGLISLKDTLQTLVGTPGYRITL
MT1-MMP act inh = blocks activation of human MT1-MMP; P50281; HT1080 RFP-PRO-GFP cells, GFP/RFP ratio fluorescence, overnight; percent of plate control window, DMSO zero; GFP/RFP ratio change, % at 20 µM; hit rate 0.061% among 360,000; AID 651647;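 active means GFP/RFP ratio change of at least 30% with cell ATP level not reduced by more than half and red fluorescence within 50% of control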; further: strong numbers were not always called active
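Assay system: RFP-PRO-GFP reporter HT1080 cells; read-out basis: GFP/RFP fluorescence ratio; benchmarks: DMSO wells and RFP-L50D-GFP cells; doses: 20 µM single dose, 1% DMSO; schedule: overnight cell settling, then overnight compound exposure, 37 °C, 5% CO2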
Yeast UUG start = yeast start codon fidelity modulation; S. cerevisiae UUG-firefly luciferase reporter, luminescence/redox ratio; activity score, % at 18.7 µM; hit rate 0.13% among 350,000;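 active means replicate mean at a twofold rise or more, about +100% in these data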;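 further: firefly luciferase made from a UUG start codon reports start codon fidelity; reporter light over untreated wells divided by growth signal over untreated wells; some hits fall short of that in this replicate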
eIF4H FP inh = inhibitors of RNA binding by human eIF4H | hit rate 0.94% among 290,000 | Q15056 | eIF4H fluorescence polarization binding assay | inhibition, % at 35 µM;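 active means 50% or more with normal probe brightness, or confirmed in later tests; about a fifth of its hits are not listed in these tables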;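 further: calls also rest on retests at 20 µM and on dose response follow-up; 0% = protein and probe with vehicle and 100% = probe without protein; strong numbers were not always called active; many hits fall short of the cut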
PABP polyA inh = blocks human PABP binding to poly(A) RNA; inhibition, % at 35 µM; P11940; AID 2014; hit rate 1% among 290,000; fluorescence polarization;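 active means 50% or more with normal probe brightness, or confirmed in later tests; about a fifth of its hits are not listed in these tables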;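 further: calls also rest on retests at 20 µM and on dose response follow-up; controls were probe without protein and protein plus probe with vehicle; some compounds called inactive have numbers as strong as hits; many hits fall short of the cut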
Target sequence (P11940 whole entry, looked up): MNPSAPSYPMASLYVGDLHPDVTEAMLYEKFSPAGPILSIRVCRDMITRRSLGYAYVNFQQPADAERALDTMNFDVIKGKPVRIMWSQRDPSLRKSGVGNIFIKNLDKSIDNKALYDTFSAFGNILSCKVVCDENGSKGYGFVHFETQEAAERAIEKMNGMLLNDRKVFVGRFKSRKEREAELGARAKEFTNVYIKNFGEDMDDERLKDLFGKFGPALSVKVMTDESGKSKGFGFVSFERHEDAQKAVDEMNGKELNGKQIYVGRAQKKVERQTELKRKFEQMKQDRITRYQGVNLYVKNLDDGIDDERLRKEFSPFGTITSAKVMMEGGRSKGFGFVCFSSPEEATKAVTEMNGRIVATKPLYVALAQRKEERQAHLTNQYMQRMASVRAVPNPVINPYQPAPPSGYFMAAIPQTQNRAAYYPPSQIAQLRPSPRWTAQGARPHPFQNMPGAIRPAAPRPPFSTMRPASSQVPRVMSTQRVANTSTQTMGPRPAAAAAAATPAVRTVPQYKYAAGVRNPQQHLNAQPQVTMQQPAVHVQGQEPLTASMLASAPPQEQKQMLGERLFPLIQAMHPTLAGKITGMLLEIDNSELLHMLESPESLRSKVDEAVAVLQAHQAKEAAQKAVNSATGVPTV
CSC inhib = blocks cancer stem cells. inhibition, % at 7.5 µM. cancer stem cell-like cells viability, luminescence. hit rate 1.1% among 300,000;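 active means mean at 75% or more and at least half the replicates too; tested in HMLE shEcad cells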;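 further: 0% = median of negative and 100% = median of positive control wells; the first replicate is given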
eIF4H FP inh retest = also measured in eIF4H FP inh; calls as there; inhibition, %; compound at 20 µM; confirmation average;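 mean of two retest wells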
PABP polyA inh retest = also measured in PABP polyA inh; calls as there; inhibition, %; compound at 20 µM; confirmation repeats;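 mean of two retest wells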
MT1-MMP act inh RFP = recorded beside MT1-MMP act inh, whose call it bears; RFP signal change, %; measured here: RFP expression control read;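 0 = vehicle wells; hits needed this value within 50% of zero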
* hit, by the source's call; i = inactive; . = not tested or not shown; + = active, no number; & = joins results of further samples; [ ] = dose if it differs, or a comment.

A first look (3 entries):
SMILES | Env fusion inh | Rce1 inh | MT1-MMP act inh | MT1-MMP act inh RFP | Yeast UUG start | eIF4H FP inh | PABP polyA inh | CSC inhib | others
CC(C)C(=O)Nc1cccc(C(=O)OCC(=O)c2ccc(Cl)cc2Cl)c1 | -6 | i | 1 | -2 | -12 | -11 | -3 | -1
O=C(NCCc1ccccc1)c1cccc(NC(=O)C2CCC2)c1 | -19 | . | 4 | 4 | 1 | . | . | .
CSc1nc(-c2ccc(Cl)cc2)nn1S(=O)(=O)c1ccc(Cl)cc1 | . | i | 0 | -1 | -9 | -13 | 4 | -10

The listing, previewed entries included:
SMILES | Env fusion inh | Rce1 inh | MT1-MMP act inh | MT1-MMP act inh RFP | Yeast UUG start | eIF4H FP inh | PABP polyA inh | CSC inhib | others
CC(C)C(=O)Nc1cccc(C(=O)OCC(=O)c2ccc(Cl)cc2Cl)c1 | -6 | i | 1 | -2 | -12 | -11 | -3 | -1
O=C(NCCc1ccccc1)c1cccc(NC(=O)C2CCC2)c1 | -19 | . | 4 | 4 | 1 | . | . | .
CSc1nc(-c2ccc(Cl)cc2)nn1S(=O)(=O)c1ccc(Cl)cc1 | . | i | 0 | -1 | -9 | -13 | 4 | -10
COc1ccc2c(c1OC)C(=O)N1C2SC(C)(C)[C@H]1C(=O)NC1CC1 (stereo not given in full) | . | i | 0 | 4 | 1 | -3 | 6 | -9
Cc1cc(NC(=O)CSc2ncccc2C(=O)O)no1 | -2 | i | 0 | 1 | -8 | -8 | -8 | -5
Fc1cc(F)nc(NCc2ccccc2)n1 | -2 | i | 1 | 3 | -8 | 71 | 46 | 7 | eIF4H FP inh retest=5;PABP polyA inh retest=9
CC1CCCN(S(=O)(=O)c2ccc3c(c2)c(=O)nc2ccccn23)C1 (stereo not given) | -9 | i | -1 | 0 | 2 | 2 | 9 | -10
O=C(CCNC(=O)c1ccccc1)Nc1ccc(S(=O)(=O)Nc2ncccn2)cc1 | -2 | . | 3 | 6 | -13 | . | . | -7
CCCCOc1ccc(C(=O)N/C(=C/C=C/c2ccccc2)C(=O)O)cc1 | -3 | i | 3 | 4 | . | -4 | -5 | 5
NS(=O)(=O)c1ccc(CCNC(=O)CNC(=O)Cc2cccc3ccccc23)cc1 | -1 | i | 5 | 5 | . | -8 | -6 | -17
CN1C[C@@H]2C(c3ccc(C(F)(F)F)cc3)C3(c4cccnc4)CC2(C3)[C@H]1c1ccccc1 (stereo not given in full) | -31 | i | 5 | 5 | -16 | 0 | -2 | 11
Clc1cc(Cl)c(OCc2nc(-c3ccccn3)no2)cc1Cl | i | i | 2 | -1 | -20 | 3 | -10 | 22
CC(C)NC(=O)N(C)C[C@H]1Oc2c(NS(=O)(=O)c3cn(C)cn3)cccc2C(=O)N([C@H](C)CO)C[C@@H]1C | -10[16.7 µM] | . | 0 | 2 | -6&-9 | . | . | -9
CCc1cc(=O)oc2cc(OC(=O)CN3C(=O)NC4(CCCC4)C3=O)ccc12 | . | i | -12 | -2 | -16 | -7 | -6 | 5
Cc1ccc(C)n1-c1c(C(=O)NN)cnn1-c1ccccc1 | 10 | i | 1 | -4 | . | 8 | 1 | -19
O=C(COc1ccccc1F)Nc1nnc(C2CCCC2)s1 | -19 | i | -3 | -1 | 36 | 3 | 11 | -10
CSc1ccc(C(=O)C2CCCN(C(=O)c3cccc(N4CCOCC4)c3)C2)cc1 (stereo not given) | 21 | i | -8 | 4 | 3 | -8 | -4 | 24
CNC(=O)c1[nH]cnc1C(=O)N[C@@H](C)C(=O)OCc1ccccc1 | -4 | i | 13 | -11 | -24 | 4 | 12 | -9
COc1ccc(NC(=O)c2ccc(COc3ccccc3Br)o2)c(OC)c1 | 17 | i | 9 | 3 | 11 | . | . | 92*
COc1ccc(Cc2nc3ccc(C(=O)NC(C)Cc4ncccc4C)cc3o2)cc1OC (stereo not given) | . | . | -1 | -15 | -12 | -9 | -10 | -7
CC(=O)c1cccc(NC(=O)COC(=O)CCC(=O)c2ccc(F)cc2)c1 | . | . | 1 | 6 | -4 | . | . | -4
CCOC(=O)c1[nH]c2ccc(OC)cc2c1NC(=S)N1CCN(c2ccccn2)CC1 | 6 | i | 3 | 4 | . | 5 | 6 | -10
O=C(OCc1ccc(Cl)cc1Cl)c1cccnc1Cl | -44 | . | 1 | -2 | . | -6 | -3 | -20
O=C(Nc1ccc2nc3n(c(=O)c2c1)CCCCC3)c1c(F)ccc([N+](=O)[O-])c1F | 15 | i | -20 | -34 | -16 | -8 | 4 | 116*
CC(C)CCOc1ccc(C(=O)NCCC(=O)N2CCOCC2)cc1 | . | i | -7 | -2 | -8 | 12 | 4 | -15
CCOC(=O)C(CC)/C(C)=N\NC(=O)c1cccc(C)c1 (stereo not given) | 5 | i | -1 | 4 | . | -13 | -10 | -16
Cc1ccc2cc(CN(CCCN(C)C)C(=S)NCc3ccccc3)c(=O)[nH]c2c1C | 10 | i | -8 | 3 | . | 5 | 5 | -2
Cn1c(CNC(=O)c2ccc(F)cc2)cc2ccccc21 | 2 | i | -3 | 1 | 3 | 2 | -6 | -8
Cc1ccc2ccccc2[n+]1CCCS(=O)(=O)[O-] | . | i | -9 | -5 | -15 | 6 | 0 | -8
COc1ccccc1NC(=O)c1ccc(NC(=O)CN2C(=O)CN(C)C2=O)cc1 | 5 | i | 4 | 4 | . | -2 | 1 | -3
CCC(=O)N1CCN(c2ccccc2NC(=O)COc2cc(C)ccc2C(C)C)CC1 | . | i | -12 | -15 | 23 | -6 | -6 | 16
O=C(CCc1ccccc1)Nc1c(F)c(F)c(F)c(F)c1F | . | i | 0 | -3 | -19 | -3 | -3 | .
O=C(CSCC(=O)Nc1nccs1)Nc1ccccc1 | . | i | 5 | 6 | -12 | 3 | -2 | .
CN(C)/C=C/C(=O)c1ccc(C(F)(F)F)cc1F | 17 | i | 2 | 2 | -12 | -9 | 2 | -14
CC(C)NCC(O)(c1ccc(Cl)cc1)c1ccc(Cl)cc1 | -3 | i | 9 | -3 | . | -2 | -5 | -3
C=CCOc1ccc(C2/C(=C(\O)c3ccc(F)cc3)C(=O)C(=O)N2CCCN(C)C)cc1 (stereo not given) | . | i | 3 | 1 | -15 | -10 | 2 | 9
CC(NC(=O)Nc1nccs1)(C(F)(F)F)C(F)(F)F | . | i | -3 | 0 | -6 | -8 | 0 | 22
Cc1ccc(C)c(Cn2nc3c4ccccc4n(Cc4ccccc4)cc-3c2=O)c1 | 23 | i | 0 | 2 | -23 | 1 | -1 | .
CCNC(=O)[C@H]1O[C@@H](n2cnc3c(N)nc(NCCc4ccc(CCC(=O)O)cc4)nc32)[C@H](O)[C@@H]1O | -16 | i | 3 | -1 | -7 | 2 | -5 | -8
CCN(CC)S(=O)(=O)c1ccc(Cl)c(NC(=O)COC(=O)c2nc3nc(C)cc(C)n3n2)c1 | -9 | . | 2 | 2 | -11 | . | . | 12
N/C(=N\OC(=O)CCC1CCCCC1)c1cccnc1 | -7 | i | -3 | -4 | -17 | -6 | -6 | -14
O=C(c1ccc2oc(CCCc3ccccc3)nc2c1)N1CCCC1 | -52 | i | -2 | -3 | 1 | -3 | -14 | 4
O=C(NCc1ccco1)C(Cc1ccccc1)N1C(=O)C2C3C=CC(C3)C2C1=O (stereo not given) | . | i | 2 | 0 | 2 | 6 | -1 | -4
CCOc1ccc(S(=O)(=O)NCc2ccco2)c2ccccc12 | . | i | 12 | 4 | 3 | 8 | 21 | -14
CC(Sc1ccccc1)C(=O)NN=C1CCCCCCC1 (stereo not given) | 14 | i | 0 | 4 | -7 | -7 | 8 | -16
CCc1ccc(NC(=O)[C@H](Cc2ccccc2)NC(=O)C2CCN(C(=O)[C@@H](N)CC(C)C)CC2)cc1 | . | i | -2 | -3 | -1 | -19 | -15 | 0
CCOC(=O)C1(Cc2cccc(Cl)c2)CCCN(C(=O)c2cnn(CC)c2)C1 (stereo not given) | -13 | i | 0 | 1 | -6 | -13 | -4 | -1
CCN(Cc1ccncc1)C(=O)CCc1nnc(CCC2CCCCC2)o1 | 14 | i | -2 | 2 | -8 | -3 | 5 | -8
O=C(O)c1c2c(nc3ccc(S(=O)(=O)N4CCC(C(=O)N5CCCCC5)CC4)cc13)CCCC2 | -8 | . | -1 | 3 | -10 | 2 | 22 | -6
CN(c1cccc(Cl)c1)S(=O)(=O)c1cccc(C(=O)Nc2nc3ccccc3[nH]2)c1 | 43 | i | -23 | -32 | . | 14 | 50 | 63

The results go on:
SMILES | Env fusion inh | Rce1 inh | MT1-MMP act inh | MT1-MMP act inh RFP | Yeast UUG start | eIF4H FP inh | PABP polyA inh | CSC inhib | others
CNC(=O)CN(c1cccc(Br)c1)S(C)(=O)=O | 33 | . | -1 | 3 | -19 | -2 | 10 | -2
COCCNC(=O)NC(=O)CN1C(=O)NC(Cc2c[nH]c3ccccc23)C1=O (stereo not given) | -2 | i | 1 | 3 | -13 | 49 | 9 | 4
CCc1ccc(CN(C)C(=O)CCc2nnc(-c3ccc(-c4ccccc4)cc3)o2)nc1 | 56* | i | -4 | -8 | . | -1 | 3 | -3
CCOCCc1c(O)nc(SCCOc2ccc(C)c(C)c2)[nH]c1=O | 4 | i | 2 | 2 | . | -4 | 4 | -13
COc1ccc(OC)c(-c2cc(C(=O)Nc3cc(C)on3)no2)c1 | -223 | i | -4 | -3 | . | -1 | 0 | -6
COc1ccccc1CNC(=O)CCS(=O)(=O)c1ccc2c(c1)CCN2C(C)=O | 6 | i | 5 | 0 | -16 | 16 | 2 | -8
Cc1sc2c(c1C)c(=O)n(-c1ccccc1)c1nnc(C)n21 | . | . | 3 | 1 | . | 3 | -8 | -25
CC(C)NC(=O)c1c(CSc2ccccc2)noc1C(=O)NCc1ccccc1 | 10 | i | -1 | -6 | -20 | -11 | -2 | 45
Cc1ccc(-n2cc(CNCCc3cscn3)c(-c3ccc(F)cc3)n2)cc1 | -14 | i | 0 | 1 | . | 3 | 6 | -8
CC(C)(C)C1CCC(OC(=O)c2cncc(Br)c2)CC1 (stereo not given) | 6 | i | 1 | -1 | -10 | 7 | -17 | -9
Cc1nc(NC(=O)COC(=O)CCC(=O)c2cccs2)c(Cl)cc1Cl | 15 | . | 1 | 11 | . | 0 | -11 | -7
CCOc1ccccc1NC(=O)COC(=O)c1cnc(C)cn1 | -2 | . | -1 | 3 | -40 | . | . | .
O=C(CCN1CCN(Cc2ccccc2)CC1)Nc1cccc(Cl)c1 | 19 | i | 5 | -6 | -14 | -14 | 1 | -3
Cc1cc(C)nc(SCc2ccc(C(=O)N/N=C/c3cccnc3)cc2)n1 | . | i | 0 | 1 | . | -4 | 0 | 4
c1ccc(CN(Cc2ccccc2)c2c3c(nc4ncnn24)CCC3)cc1 | 16 | i | 5 | 2 | -19 | -12 | -13 | 2
CN(C)C(=O)CNc1ccn2nc(-c3cccc(Cl)c3)cc2n1 | 4 | . | 6 | -4 | -8 | . | . | .
CCN(CC)CCCN(Cc1cc2cc3c(cc2[nH]c1=O)OCO3)C(=S)NCCCN(C)C | 14 | + | 2 | 2 | -2 | -5 | 18 | -13
O=C(O)CCCc1ccc2ccc3cccc4ccc1c2c34 | -10 | i | 2 | 0 | -17 | 9 | 11 | 5
O=C(OC(c1ccccc1)c1nccc2ccccc12)c1ccccc1 (stereo not given) | -160 | . | -7 | -5 | -52 | . | . | .
C=CCN(C(=O)c1csnn1)C(C(=O)NCc1ccc(F)cc1)c1cccs1 (stereo not given) | 13 | . | 0 | -2 | -9 | -14 | 2 | -7
CN1C(=O)C2(Nc3ccccc3-c3nc4ccccc4n32)c2ccccc21 (stereo not given) | 28 | i | -1 | -2 | -2 | -6 | -9 | -20
COCC(=O)OCC(=O)Nc1ccc(Cl)cc1[N+](=O)[O-] | -17 | i | 3 | 3 | . | 6 | 5 | 2

The list is partial (hit frequency here may not be typical).
